Screening results from PubChem BioAssay.
Mtb growth: M. tuberculosis H37Rv growth inhibitors, H37Rv strain (AID 1626) | M. tuberculosis H37Rv growth inhibition; higher % means a stronger effect | actives 0.95% (n = 220,000) | inhibition, % at 10 µM, or IC50 in µM where a hit was titrated;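 active = confirmed in a dose series; inconclusive = inhibition above 80% but not taken into the dose series; inactive = below 80% or under 30% at every dose of the series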;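 note: bacteria incubated seven days before Alamar blue readout; 0% = bacteria only wells and 100% = bacteria with antibiotic wells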
RecA intein inh: Mtb RecA intein splicing inhibition | AID 2221 | cell-free RecA intein splicing, fluorescence | actives 0.75% (n = 290,000) | P9WHJ3 | inhibition, %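 (about 9 µM by stock and volumes)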; in the data active = inhibition above about 30%; inconclusive = no clear call, values can overlap the other calls;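 note: 0% = vehicle wells and 100% = reference inhibitor control wells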
Target sequence (P9WHJ3 whole entry, looked up): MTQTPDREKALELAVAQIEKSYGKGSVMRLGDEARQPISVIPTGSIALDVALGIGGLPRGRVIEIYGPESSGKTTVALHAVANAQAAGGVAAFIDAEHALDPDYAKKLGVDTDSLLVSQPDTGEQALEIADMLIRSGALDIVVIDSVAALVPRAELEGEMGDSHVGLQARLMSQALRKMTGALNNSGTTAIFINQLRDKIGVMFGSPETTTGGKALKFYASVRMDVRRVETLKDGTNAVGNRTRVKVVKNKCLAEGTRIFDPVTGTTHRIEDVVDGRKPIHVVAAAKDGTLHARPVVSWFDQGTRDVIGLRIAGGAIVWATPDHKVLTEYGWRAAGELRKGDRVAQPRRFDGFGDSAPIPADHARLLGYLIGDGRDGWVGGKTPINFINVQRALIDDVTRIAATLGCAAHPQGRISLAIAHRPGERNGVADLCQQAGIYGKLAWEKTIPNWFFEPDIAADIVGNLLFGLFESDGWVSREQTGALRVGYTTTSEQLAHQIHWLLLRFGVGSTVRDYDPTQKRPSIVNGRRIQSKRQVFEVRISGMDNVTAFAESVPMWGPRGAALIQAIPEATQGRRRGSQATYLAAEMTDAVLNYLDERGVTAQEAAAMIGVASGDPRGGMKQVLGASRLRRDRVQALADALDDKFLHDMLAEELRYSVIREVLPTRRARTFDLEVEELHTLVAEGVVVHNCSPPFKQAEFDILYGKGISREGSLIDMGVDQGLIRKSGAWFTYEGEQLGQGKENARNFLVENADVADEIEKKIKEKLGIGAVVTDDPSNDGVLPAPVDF
Mtb bLac sens: beta-lactam sensitization of Mtb H37Rv; M. tuberculosis H37Rv growth with meropenem, percent inhibition; hits of this screen are not shown here; inhibition, % at 25 µM; actives 0.27% (n = 330,000); AID 434955;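 active = about 74% or more and at least 40 points above the plate without the antibiotic, then above 30% in a dose series; inconclusive = first-round hits that could not be retested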;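 note: growth measured after seven days incubation then overnight dye step; 0% = bacteria only wells and 100% = bacteria with antibiotic; twin plates without the antibiotic show which effects depend on it; some results filed as inactive read as strong as hits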
Arbovirus anti: antivirals against arbovirus infection; AID 1251; actives 0.37% (n = 200,000); inhibition, % at 10 µM; arbovirus infection cell-based antiviral screen;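 active = inhibition from about 30%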;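 note: bluetongue infection of BSR cells; cell survival read as ATP light after 72 h; 0% = infected wells without compound and 100% = uninfected wells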
YopH inh: inhibitors of Yersinia enterocolitica YopH tyrosine phosphatase. fluorescence Ex485/Em525. inhibition, %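 (about 10 µM by stock and volumes)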. actives 0.16% (n = 140,000). AID 898;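 active = inhibition of 50% or more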;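 note: controls were vehicle for no effect and minimum signal wells for full effect; inactives centre near -20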
Arbovirus anti repeat: recorded beside Arbovirus anti, whose call it bears; inhibition, %; measured here: 10K subset replicate screen; many hits read low in the repeat;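 first of two repeat runs on a subset; 0% = infected and 100% = uninfected wells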
* hit, by the source's call; ? = inconclusive; nt = no result given. Not all compounds are listed (hit frequency here may not be typical).

SMILES	Mtb growth	RecA intein inh	Mtb bLac sens	Arbovirus anti	YopH inh	others
O=C(NCC(=O)N(c1cccc(F)c1)C(C(=O)NC1CCCC1)c1ccco1)c1ccco1 (centres undefined)	-3%	2.9	2	-2	nt
O=C(COC(=O)c1cccs1)c1ccc2ccccc2c1	7%	1.6	86	-2	-27
O=C(c1ccc(OC2CCN(Cc3cccc(OCCO)c3)CC2)cc1)N1CCCC1	nt	2.0	1	nt	nt
OCc1ccccc1N=c1ssnc1Cl	11%	1.4	93	1	-2
COc1ccccc1OCC(=O)NCCc1nc2ccccc2[nH]1	4%	-0.9	-3	2	-19
Cc1cccc2cc(CN(Cc3ccc(F)cc3)C(=O)N3CCOCC3)c(=O)[nH]c12	2%	5.3	-1	4	-14
CC12c3ccccc3C(c3ccccc31)C1C(=O)N(Cc3cccnc3)C(=O)[C@H]12 (some centres undefined)	-6%	0.9	-2	5	-21
Cc1ccc(C(CC(=O)N2CCCC2)c2ccccc2)c(O)c1C (centres undefined)	1%	-1.6	-2	-1	-44
C[C@@H](C(=O)Nc1cccc(S(=O)(=O)N2CCOCC2)c1)N1C(=O)C2CC=CCC2C1=O (some centres undefined)	4%	0.5	0	1	nt
CC(C)(C)NC(=O)CN(Cc1ccc2c(c1)OCO2)C(=O)CNS(=O)(=O)c1ccc(F)cc1	nt	1.4	4	nt	nt
COc1ccccc1N1CCN(C2CCCN(C(=O)CCC(C)=O)C2)CC1 (centres undefined)	nt	-1.9	-2	nt	nt
Cc1cccc(-n2nc(CC#N)c(C#N)c2N)c1	-6%	9.3	1	2	nt
Cc1cc(C)c(S(=O)(=O)N2CCN(C(=O)c3ccc4c(c3)OCO4)CC2)c(C)c1	nt	4.4	1	nt	nt
CCOC(=O)c1oc2ccccc2c1NC(=O)COc1ccc(F)cc1	nt	-3.0	14	6	-44
O=C(NCc1ccco1)c1ccc2c(c1)C(=O)N(C1CCCCC1)C2=O	2%	-2.2	7	0	-6
Cc1nc(SCC(=O)c2cccc([N+](=O)[O-])c2)n[nH]1	-9%	2.5	14	7	-33
O=C(CSc1nc2ccccc2c(=O)n1Cc1ccccc1)NCc1ccco1	-6%	-2.6	-4	5	-12
COc1cccc(Nc2cc(N3CCOCC3)c3nonc3c2[N+](=O)[O-])c1	9%	2.5	-11	0	-18
O=C(NCC1CCCO1)c1ccc(CSCc2cccc(F)c2)o1 (centres undefined)	-7%	-0.2	3	-2	nt
COc1ccc(C(=O)NCCSc2ccc(C)cc2)cc1	-5%	-1.4	8	-4	-8
Cc1nnc(NC(=O)c2ccccc2F)s1	2%	-0.1	0	2	-30
COC(=O)c1sccc1NC(=O)Nc1ccc(C)cc1	nt	1.0	4	nt	nt
O=C(N/N=C/c1cc([N+](=O)[O-])ccc1O)Nc1ccccc1	0%	-1.5	-6	-4	nt
COc1ccc2cc3cc(C(=O)N4CCN(C5CCCCC5)CC4)oc3nc2c1	nt	-1.2	0	nt	nt
NC(=O)c1cc[n+](CC(=O)c2ccc(NC(=O)c3ccccc3)cc2)cc1	2%	1.1	-11	1	nt
CC1CCc2nn(CC(=O)NC3CCCC(C)C3C)cc2C1 (centres undefined)	-7%	0.9	7	1	-21	Arbovirus anti repeat=-2
Cc1cc(C)cc(SCc2noc(C(=O)NC(C)C)c2C(=O)O)c1	-2%	-4.6	nt	12	5
CC(C)CC(NC(=O)c1ccco1)C(=O)Nc1ccc2c(c1)OCCO2 (centres undefined)	-3%	2.1	5	4	-22	Arbovirus anti repeat=1
COC(=O)[C@]1(S(=O)(=O)c2ccccc2)C[C@@H]2ON=C(c3ccc(OC)cc3)[C@@H]2C1	nt	0.6	-3	nt	nt
CN1C(=O)C(O)(c2nnc(-c3ccccc3)o2)c2ccccc21 (centres undefined)	-7%	-3.4	-3	3	nt

A portion from further up, as a working copy:
SMILES	Mtb growth	RecA intein inh	Mtb bLac sens	Arbovirus anti	YopH inh	others
COc1ccc2cc3cc(C(=O)N4CCN(C5CCCCC5)CC4)oc3nc2c1	nt	-1.2	0	nt	nt
NC(=O)c1cc[n+](CC(=O)c2ccc(NC(=O)c3ccccc3)cc2)cc1	2%	1.1	-11	1	nt

(listing goes on)
SMILES	Mtb growth	RecA intein inh	Mtb bLac sens	Arbovirus anti	YopH inh	others
CC(C)CNC(=S)NNC(=O)c1csc2c1CCC(C)C2 (centres undefined)	-3%	2.1	0	-5	-22
CCC(=O)Nc1ccc(NC(=O)CSc2nnc(C(C)C)n2C)cc1	-1%	2.8	-6	5	-14
COc1ccc(CCNc2c3ccccc3nc3ccccc23)cc1OC	-2%	-60	-8	nt	nt
CC(C)(C)C(=O)Nc1nnc(CSCc2ccccc2F)s1	-3%	0.0	0	8	-33
Cc1cc(-c2ccc(Br)cc2)n[nH]1	3%	2.7	3	9	nt
O=c1c2ccccc2oc2ccc(NCCCN3CCOCC3)cc12	nt	-13	-8	nt	nt
CCOc1ccc(N(CC(=O)NCC2CCCO2)S(=O)(=O)c2ccc(SC)cc2)cc1 (centres undefined)	-1%	-0.7	nt	-3	-22
Cc1cc(-c2nn(-c3ccccc3F)cc2CN2CCC(O)CC2)c(C)s1	0%	2.1	-6	-5	nt
COc1ccc(C(=O)N2CCN(C(C)=O)CC2)cc1S(=O)(=O)N1CCOCC1	-2%	1.9	-2	22	nt
CC(=O)N=c1cccc(NC(C)=O)n1O	-9%	-0.5	14	3	-65
COc1cc(/C=C(/NC(=O)c2ccccc2)C(=O)Nc2ccccc2)c([N+](=O)[O-])cc1OC	nt	1.9	-10	7	-26
c1ccn2c(Cc3nnc4ccccn34)nnc2c1	-2%	1.8	-3	9	-4
Cc1cc(SCC(=O)c2ccccc2)n2ncc(-c3ccccc3)c2n1	15%	5.9	76	nt	nt
CS(=O)(=O)c1ccc(Cl)c(NC(=O)CSc2nc3ccccc3c(=O)n2CCCN2CCOCC2)c1	12%	1.9	-6	9	-6
Cc1ccc(N2CC(C(=O)N3CCc4ccccc43)CC2=O)cc1 (centres undefined)	2%	-1.6	5	-6	-39

Quoted at random: 3 records from the list
SMILES	Mtb growth	RecA intein inh	Mtb bLac sens	Arbovirus anti	YopH inh	others
COc1ccc(CCNc2c3ccccc3nc3ccccc23)cc1OC	-2%	-60	-8	nt	nt
COc1ccc(C(=O)N2CCN(C(C)=O)CC2)cc1S(=O)(=O)N1CCOCC1	-2%	1.9	-2	22	nt
Cc1ccc(N2CC(C(=O)N3CCc4ccccc43)CC2=O)cc1 (centres undefined)	2%	-1.6	5	-6	-39

Following part.
SMILES	Mtb growth	RecA intein inh	Mtb bLac sens	Arbovirus anti	YopH inh	others
CCCn1c(N2CCN(Cc3ccc(Cl)cc3)CC2)nc2ccccc21	35%	6.5	93	-18	nt
C=CCn1c(O)c(C(C)=NCCC2=CCCCC2)c(=O)[nH]c1=O	3%	-0.6	4	-5	-12
O=C(Oc1cccc2ccccc12)c1ccco1	-3%	25	1	3	-48
CCn1c(SCc2nc3ccccc3s2)nnc1-c1ccccc1	0%	0.7	-2	5	-11
O=c1oc2ccccc2nc1/C=C(O)/C=C/c1ccc(F)cc1	64%	4.0	94	-15	-6
CCOC(=O)c1c(NC(=O)COc2ncnc3ccccc23)sc(C)c1C	-1%	-0.3	3	3	-35
COc1ccc(-n2c(=S)[nH]c3cc(C(=O)Nc4cc(C(N)=O)ccc4OC)ccc3c2=O)c(OC)c1	nt	-2.4	5	nt	nt
COC(=O)c1ccccc1NC(=O)N1CCN(C(=O)c2ccco2)CC1	nt	1.6	-4	0	-33
c1ccc(C2Oc3ccccc3C3CC(c4cccs4)=NN32)cc1 (centres undefined)	8%	6.4	?	1	-1
N#C/C(=C\c1ccco1)Sc1nc2ccccc2s1	-6%	4.0	-1	-8	-11
O=C(C1CCCN(S(=O)(=O)c2ccccc2)C1)N1CCN(c2ncccn2)CC1 (centres undefined)	-7%	-1.0	-4	-3	17
O=C(CNC(=O)/C(=C\c1ccc(Br)cc1)NC(=O)c1ccccc1)OCc1ccccc1	1.9µM*	7.7	100	11	-35
COc1cc2c(cc1OC)-c1cc(Nc3ccc(N(C)C)cc3)nc(=O)n1CC2	-5%	-21	17	nt	nt
COc1cccc(-n2nnc3c(=O)n(CC(=O)NC4CCCC4)cnc32)c1	1%	-0.8	-7	3	-45
Cc1ccccc1NC(=O)CCN1CCN(C/C=C/c2ccccc2)CC1	-4%	nt	2	1	-31
CSc1nc2ccccc2n1C(=O)NC1CCCCC1	5%	-1.8	-18	5	-20
O=C(c1ccccn1)N1CCN(c2ccc(C(F)(F)F)cn2)CC1	-10%	-1.1	-5	0	4	Arbovirus anti repeat=2
CCOC(=O)C1CCN(CC(=O)c2c(C)n(C)c3ccc(OC)cc23)CC1	nt	0.0	-6	nt	nt
Cc1noc(C(=O)Nc2ccc(F)cc2F)c1Cl	nt	0.9	-5	nt	nt
O=C(NCc1ccccn1)c1ccc2c(=O)n(CCc3ccccc3)c(=O)[nH]c2c1	1%	-0.7	-9	-1	nt
O=C1CSC(c2ccccn2)N1c1cccc(Cl)c1 (centres undefined)	4%	-0.9	?	-2	-4
Cc1nc2scc(C)n2c(=O)c1S(=O)(=O)N1CCN(c2ccc(F)cc2)CC1	nt	-2.1	6	nt	nt
O=C(/C=C/c1ccco1)NC(=S)NNC(=O)c1ccco1	-7%	2.9	7	-14	-32
CCc1ccc(NC(=O)CSc2nc3ccccc3c(=O)n2CCCC(=O)NCCCN2CCOCC2)cc1	3%	-2.1	-2	-17	nt
Cc1cc(=O)oc2c(C(=O)/C=C\c3cccs3)c(O)ccc12	4%	-2.6	66	-9	-18
CN(C)S(=O)(=O)c1cccc(-c2nnc(SCc3ccc4c(c3)OCCO4)o2)c1	-9%	1.3	-12	6	-36
CCN(CCO)C1CC(=O)N(c2ccccc2C)C1=O (centres undefined)	-7%	2.8	-6	6	-22
CC(C)C(NC(=O)CN(c1ccc2c(c1)OCCO2)S(=O)(=O)c1ccccc1)C(C)C	nt	3.5	-8	nt	nt
CCCCn1nnnc1SCC(=O)c1ccccc1F	-10%	nt	1	-3	nt
O=C(CSc1ccccc1)N1CCCC(N2CCN(c3ccccc3)CC2)C1 (centres undefined)	nt	-0.6	0	nt	nt
O=C(O)c1cccc(NC(=O)c2ccc(COc3ccc(Cl)cc3)cc2)c1	nt	4.6	6	nt	nt
COc1cccc(-c2cc(C(=O)N/N=C/c3cccc(OC)c3OC)c3ccccc3n2)c1	nt	1.3	2	nt	nt
COc1cccc(NC(=O)c2c([N+](=O)[O-])cnn2C)c1	nt	-0.1	-6	nt	nt
CCOC(=O)N1CCN(C(=O)C2CCCCC2)CC1	-6%	-1.8	-14	11	0
CCOc1cc(C2NC(=O)NC(c3ccccc3)=C2C(=O)c2ccccc2)c(Br)cc1OCC(=O)O (centres undefined)	-7%	-1.3	3	-2	nt
COc1ccc(-c2csc(NC(=O)c3ccccc3F)n2)cc1	nt	4.1	6	nt	nt
CC1CCCN(C(=O)C2CCN(CC3CC=CCC3)CC2)C1 (centres undefined)	-14%	-1.1	-16	2	-17
O=C(CSc1cn(Cc2ccccc2)c2ccccc12)NCc1ccc(F)cc1	-4%	0.9	-3	1	-12
C[n+]1cccc(C(=O)NNC(=O)C23CC4CC(CC(C4)C2)C3)c1	-3%	9.9	-3	4	nt
Cc1ccc2sc(N(CCCN(C)C)C(=O)c3ccc(S(=O)(=O)N4CCOCC4)cc3)nc2c1C	nt	1.5	-7	nt	nt
O=C(NC1CCCCC1)c1cc(-c2cccs2)on1	nt	-2.2	4	nt	nt
Cc1cc([N+](=O)[O-])nn1CC(=O)N1CCc2ccccc2C1	-11%	1.1	-2	3	-27
O=c1c2ccccc2ncn1-c1cccc(Br)c1	nt	1.6	0	nt	nt
COc1cc(C)ccc1OCCOc1c(C)cc(Cl)cc1Cl	25%	4.2	98	4	0
CC1Cc2ccccc2N1C(=O)CSC1=NCCS1 (centres undefined)	2%	12	-4	0	-35	Arbovirus anti repeat=-7

Among those listed so far, two contain a tert-butyl group.
SMILES	Mtb growth	RecA intein inh	Mtb bLac sens	Arbovirus anti	YopH inh	others
CC(C)(C)NC(=O)CN(Cc1ccc2c(c1)OCO2)C(=O)CNS(=O)(=O)c1ccc(F)cc1	nt	1.4	4	nt	nt
CC(C)(C)C(=O)Nc1nnc(CSCc2ccccc2F)s1	-3%	0.0	0	8	-33

Next results:
SMILES	Mtb growth	RecA intein inh	Mtb bLac sens	Arbovirus anti	YopH inh	others
O=C(N/C(=C/c1ccc(Br)cc1)C(=O)N1CCCC1)c1cccs1	3%	-1.2	-6	-13	nt
COCCNC(=O)[C@@H]1CSC2c3ccc(OC)c(OC)c3C(=O)N21 (some centres undefined)	nt	1.9	6	nt	nt
COc1cccc(-c2nc3n(n2)C(c2ccccc2Cl)C(C(N)=O)=C(C)N3)c1 (centres undefined)	0%	1.3	?	-5	-18	Arbovirus anti repeat=-4
CCc1nn(CC(=O)NCCCN2CCN(C)CC2)c(=O)c2cc3occc3n12	nt	3.1	-4	nt	nt
COc1nnc(-c2ccc(N3CCCCC3)c(N)c2)c2ccccc12	3%	5.4	10	nt	7
